# Screening results (PubChem BioAssay)
# A647 autofl: compound autofluorescence in A647 spectral region | Compound fluorescence, A647 channel (570/671 nm), Tris buffer | max dye-equivalent concentration, M | 59,000 tested, under 10 active; active means above 1 µM dye equivalent; inconclusive means 0.1 to 1 µM; inactive means 0.1 µM or less;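 further: values scaled relative to a standard on each plate; highest value over a series up to 38 µM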
#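 Each compound's intrinsic fluorescence at 570 nm excitation and 671 nm emission is measured across its concentration series in 100 mM Tris, pH 8.0, after 15 min at room temperature, and reported relative to an A647 curve.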
# A488 autofl: A488 region autofluorescence; compound autofluorescence, A488 spectral region, dye equivalency; hits give high values; max dye equivalency, M; hit rate 0.1% among 59,000; active = above 10 nM dye equivalent; inconclusive = 1 to 10 nM; inactive = 1 nM or less; about half of its hits are not listed in these tables;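 further: highest value over a series up to 38 µM; compound alone in buffer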
#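 Spectroscopic profiling in the A488 region: compounds in pH 8.0 Tris (100 mM), 15 min RT, CCD imaging with 480 nm excitation and 540 nm emission; responses normalized against A488 dye standards.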
# TSHR agonist: TSH receptor (human) agonism; HEK293-CNG-TSHR cells (CNG channel as cAMP sensor), membrane potential dye, cAMP; Potency, µM (top dose mostly 57.1 µM), for inactives: top-dose activation, hits mostly activators; hit rate 0.48% among 73,000; active = well fitted activation curve of enough size with the parental cells flat; inconclusive = any curve in the parental cells; inactive = parental cells flat and receptor cells flat or falling; further: potency means the concentration at half of the fitted maximal effect; % of control where 0% means no effect; weak receptor curves with flat parental cells got no call and are not listed
# Target sequence (P16473 whole entry, looked up): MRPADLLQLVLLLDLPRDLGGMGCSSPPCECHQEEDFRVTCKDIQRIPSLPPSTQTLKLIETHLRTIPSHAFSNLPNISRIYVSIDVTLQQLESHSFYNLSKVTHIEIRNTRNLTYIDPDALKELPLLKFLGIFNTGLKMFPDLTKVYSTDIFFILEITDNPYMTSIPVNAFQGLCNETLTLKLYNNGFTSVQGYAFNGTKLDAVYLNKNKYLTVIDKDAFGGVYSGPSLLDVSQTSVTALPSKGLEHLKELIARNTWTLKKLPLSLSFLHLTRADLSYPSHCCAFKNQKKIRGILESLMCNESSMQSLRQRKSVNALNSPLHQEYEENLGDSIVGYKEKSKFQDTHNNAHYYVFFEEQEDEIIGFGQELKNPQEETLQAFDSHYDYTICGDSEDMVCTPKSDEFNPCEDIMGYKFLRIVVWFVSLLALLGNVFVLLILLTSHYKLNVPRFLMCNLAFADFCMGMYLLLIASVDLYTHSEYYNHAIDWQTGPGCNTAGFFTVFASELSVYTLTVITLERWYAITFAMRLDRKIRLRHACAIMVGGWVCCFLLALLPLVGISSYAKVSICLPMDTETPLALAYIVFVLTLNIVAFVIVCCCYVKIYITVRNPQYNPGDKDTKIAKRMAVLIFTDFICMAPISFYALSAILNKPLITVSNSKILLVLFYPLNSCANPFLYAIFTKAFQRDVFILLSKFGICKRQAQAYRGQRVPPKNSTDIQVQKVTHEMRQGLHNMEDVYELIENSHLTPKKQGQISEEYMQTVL
#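 HEK 293 cells stably expressing TSHR and a modified CNG channel, with CNG-only parental cells as counterscreen, were preloaded 60 min at room temperature with membrane potential dye containing 100 uM RO 20-1724. Compound exposure was 30 min, and depolarization was read as fluorescence at 590 nm.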
# Resorufin fluor: compound fluoresces in the resorufin spectral region; Compound fluorescence, resorufin region 547/598 nm, buffer; hits give high values; max dye-equivalent concentration, M; hit rate 0.04% among 59,000; active = above 10 nM dye equivalent; inconclusive = 1 to 10 nM; inactive = 1 nM or less; a few of its hits are not listed in these tables; further: highest value over a series up to 38 µM
#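 Intrinsic fluorescence profiled in the resorufin window (ex 547 nm, em 598 nm) after 15 min at room temperature in pH 8.0 Tris buffer (100 mM); responses normalized against a six-point resorufin standard series as dye-equivalent concentration.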
# AID923: qHTS Assay for Allosteric/Competitive Inhibitors of Caspase-1: Spectroscopic Profiling in AFC Spectral Region; compound fluorescence, AFC spectral region (405/520 nm); almost no hit is shown here; Potency, µM (series often up to 57.5 µM), for inactives: at the highest dose fluorescence increase, actives largely listed as activators; hit rate 1.1% among 75,000; AID 923, 2007; active means well fitted activation curve with a large enough effect; inconclusive means small, poorly fitted or top-dose-only effect;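 further: potency means the concentration at half of the fitted maximal effect; 0% is about no effect; scaled to a free AFC standard on each plate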
#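 Titrations up to 57 uM read every 20 sec for 3 min (405/520 nm) with 50 nM caspase 1 and 5 uM Ac-WEHD-AFC, pH 7.5 HEPES buffer. Fluorescence-vs-time intercept gave baseline, scaled against on-plate AFC standard.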
# An asterisk follows results filed as active; i = inactive; ? = inconclusive; · = not tested or not shown; [ ] = dose if it differs, or a comment.
canonical_smiles,A488 autofl,Resorufin fluor,TSHR agonist,AID923,A647 autofl
COCCn1c(=O)c(-c2cc(F)cc(F)c2)nc2cnc(Oc3ccc(OC)cc3)nc21,i,i,?,20%,2.6e-08
CSc1nc(-c2ccccc2)nc2c1COC(C)(C)C2,i,i,11%,0.8%,1e-09
CC(C)(C)C(=O)Cn1c[n+](N)cn1,i,i,?,-1.3%,1.8e-09
CS(=O)(=O)N1CCCC(C(=O)NCc2ccccc2Cl)C1 (stereo not drawn),i,i,-1%,2.4%,1e-09
C=CCN1C(=O)C2C(C(=O)NCc3ccccc3)C3C=CC2(O3)C1C(=O)NC(C)(C)C (stereo not drawn),i,i,16%,-3.2%,5.4e-08
CO[C@H]1COC(=O)[C@@H](CCSC)NC(=O)C/C=C\[C@@H](C)[C@H](OC)COC(=O)[C@@H](OCc2ccccc2)/C=C\[C@@H]1C,·,·,-3%[11.4 µM],0.4%[11.5 µM],·
COc1ccc(-c2cc(C(F)(F)F)nc(N3CCN(c4ccc(F)cc4)CC3)n2)cc1OC,i,i,25%,-0.5%,2.3e-08
OC(CN1C2=NCCN2c2ccccc21)c1ccc(Br)cc1 (stereo not drawn),i,i,9%,1.2%,1e-09
O=C(c1cccs1)N1CCCC(c2nc(-c3ccc(F)cc3)no2)C1 (stereo not drawn),i,i,?,0.6%,1e-09
CCOC(=O)C1CCCCN1C(=O)CCc1c(C)nc2ncnn2c1C (stereo not drawn),i,i,3%,0.0%,1e-09
COC(=O)c1ccccc1NC(=O)c1ccc(COc2ccccc2)o1,i,i,?,2.9%,1.6e-09
CC(C)C=O,·,·,3%,-0.8%,·
Cc1nn2c(-c3ccc(Cl)cc3Cl)nnc2s1,i,i,7%,-1.8%,2.6e-08
Cc1ccccc1OCCC(=O)Nc1c(C)n(C)n(-c2ccccc2)c1=O,i,i,7%,-0.5%,3.4e-08
CCn1c(SCC(=O)N2CCc3ccccc32)nnc1-c1ccncc1,i,i,2%,2.3%,2.8e-09
Cc1cc(Oc2ccc(=O)n(C)n2)nc(Oc2ccc(=O)n(C)n2)n1,i,i,-2%,-0.7%,2.9e-08
CN(C)C[C@@H](O)c1ccc(Cl)c2ccccc12,i,i,12%[11.4 µM],1.3%[11.5 µM],2.8e-08
COc1ccc(C2(C)NC(=O)N(Cc3cc(Cl)cc4c3OCOC4)C2=O)cc1OC (stereo not drawn),i,i,?,-0.5%,1e-08
O=C(c1ccncc1)N1CCC[C@@]2(CCN(C(c3ccccc3)c3ccccc3)C2)C1,i,i,?,2.4%,1e-09
CSCCC(C(=O)O)N1C(=O)c2ccc(C(=O)O)cc2C1=O (stereo not drawn),·,·,1%,1.2%,·
CCOC(=O)c1sc2ncn(/N=C/c3ccccn3)c(=O)c2c1C,·,·,2%,0.3%,·
O=C(Nc1cccc(NC(=O)C2CC3CCCC(C2)C3=O)n1)C1CC2CCCC(C1)C2=O (stereo not drawn),i,i,-6%,-0.6%,1e-09
COc1cccc(NC(=O)Cc2cccs2)c1,i,i,-6%,-0.1%,3.2e-09
COc1ccc(OC)c(C(C(=O)NCc2ccco2)N(C(=O)Cn2nnc3ccccc32)C(C)C)c1 (stereo not drawn),i,i,?,-0.8%,5.8e-09
O=C(OC1CCc2ccccc2C1=O)c1ccccc1O (stereo not drawn),i,i,?,-1.0%,1e-09
COc1ccc(NC(=O)C2CCN(S(=O)(=O)c3cccnc3)CC2)cc1Cl,·,·,?,-0.7%,·
Cc1cc(C)c2[nH]c(=O)c(C(c3nnnn3Cc3ccc4c(c3)OCO4)N3CCCC3)cc2c1 (stereo not drawn),i,i,1%,13%,2e-08
COc1ccc(OC)c(NC(=O)C2CC(=O)N(c3ccc(Br)cc3)C2)c1 (stereo not drawn),·,·,18%,-0.4%,·
CCn1c(COc2ccccc2C(N)=O)nc2ccccc21,i,i,3%,0.1%,6.8e-09
Cc1cccc(C2Nc3ccccc3C(=O)N2c2ccccc2)n1 (stereo not drawn),·,·,19%,20%,·
O=C(c1cccs1)c1no[n+]([O-])c1C(=O)c1cccs1,i,i,-5%,-0.8%,2.1e-08
Cn1c(C(=O)N2CCN(c3cccc(C(F)(F)F)c3)CC2)cc2sccc21,·,·,30%,3.8%,·
COC(=O)c1ccc(CN(Cc2ccc(C(=O)OC)o2)C(C)(C)C)o1,i,i,?,2.0%,1.1e-09
O=C(Nc1nc2c(ccc3ccccc32)s1)c1ccco1,i,i,15%,3.4%,1e-09
Cc1ccc(S(=O)(=O)N2CCCC2C(=O)NC2=NCCS2)cc1 (stereo not drawn),i,i,3%,-0.4%,5.6e-09
COc1ccc(OC)c(S(=O)(=O)N2CCCCCC2)c1,i,i,0%,0.3%,2.4e-08
COc1cc(C2C(C(=O)Nc3ccc(F)cc3)=C(C)Nc3nc(CCCO)nn32)cc(OC)c1OC (stereo not drawn),·,·,-7%,-0.2%,·
COc1ccc(-c2nnc3ccc(SCC(=O)NCC4CCCO4)nn23)cc1 (stereo not drawn),i,i,0%[11.4 µM],0.2%,4.6e-09
COc1nc(Cl)nc(Cl)c1Cl (tested in a mixture with another compound),i,i,-6%[11.4 µM],-1.3%[11.5 µM],3e-08
CCOC(=O)N1CCN(CC(=O)c2ccc3c(c2)CCN3)CC1,i,i,-5%,-0.4%,8.8e-09
Cc1cc(C)c(-c2cc([C@H](C)O/N=C3/[C@H]4OC4[C@@H](O)[C@H]4[C@H]3CCn3c(=O)n(-c5ccccc5)c(=O)n34)on2)c(C)c1 (stereo partly drawn),·,·,-12%[11.4 µM],4.2%[11.5 µM],·
CCCCOn1c(C)c(C(=O)OCC)c2c3no[n+]([O-])c3ccc21,i,i,18%,0.1%,3.7e-09
CS(=O)(=O)N(CC(=O)NCc1ccco1)c1ccc(Cl)c(C(F)(F)F)c1,·,·,20%,-2.8%,·
COC(=O)c1cc(S(=O)(=O)N2CCOCC2)c(N2CCOCC2)cc1N1CCOCC1,i,i,·,·,3.3e-08
CC(C)C(c1nnnn1Cc1ccccc1)N(Cc1ccco1)Cc1cccs1 (stereo not drawn),i,i,8%,1.0%,2.5e-08
Cc1cc(C(=O)COc2ncnc3sccc23)c(C)n1C1CC1,i,i,-1%,3.3%,3.5e-08
O=C(Cn1cnc2c(nnn2Cc2ccc(Cl)cc2)c1=O)NCc1ccco1,i,i,1%,1.2%,1e-09
CC1Oc2ccccc2N(CC(=O)NCCc2ccccc2)C1=O (stereo not drawn),i,i,6%,3.5%,1e-09
Nc1c(C(=O)NCCN2CCOCC2)c2nc3ccccc3nc2n1-c1ccc2c(c1)OCO2,i,i,·,8.0%,3.7e-08
CC(=O)CC(=O)Nc1ccc2ccccc2c1,i,i,-5%[11.4 µM],3.7%[11.5 µM],4.3e-08
[O-][n+]1onc2c1CCc1nnc(-c3ccccc3)cc1-2,i,i,1%,1.2%,1.6e-08
COC(=O)c1ccc(CSc2nnc(-c3ccncc3)n2Cc2ccccc2)o1,i,i,17%,0.0%,1.4e-09
COc1cccc(/C=c2\sc3nc(-c4cccs4)nn3c2=O)c1OC,i,i,0%,-0.9%,1e-09
CCC1(C(=O)OC)NC(c2ccccc2OC)C2C(=O)N(C)C(=O)C21 (stereo not drawn),i,i,-2%,-1.3%,1e-09
COc1ccc(C2C(C(=O)c3sc(C)nc3C)=C(O)C(=O)N2CCN(C)C)cc1 (stereo not drawn),i,i,4%,-0.5%,7.8e-09
CCCn1c(C)nc2c(NCCN3CCOCC3)nc(C)nc21,·,·,6%,-0.3%,·
CCN(CC)CCN1C(=O)C(O)=C(C(C)=O)C1c1ccc(OC)c(OC)c1 (stereo not drawn),i,i,·,·,1e-09
CCOc1ccc(NC(=O)CSc2nnc(-c3ccncc3)n2CC2CCCO2)cc1 (stereo not drawn),i,i,0%,1.5%,1.7e-09
CCN(CC)CCCN1C(=O)C(=O)/C(=C(/O)c2ccc(C)cc2)C1c1ccccn1 (stereo not drawn),i,i,·,·,3.9e-08
CC(Sc1sc(=S)sc1SC(C)C(=O)O)C(=O)O (stereo not drawn),i,i,1%,-0.8%,1e-09

# The list continues:
canonical_smiles,A488 autofl,Resorufin fluor,TSHR agonist,AID923,A647 autofl
CCCOC(=O)C1[C@H]2C(=O)N(CC3CCCO3)C[C@]23C=C[C@H]1O3 (stereo partly drawn),i,i,1%,0.6%,2e-09
O=C1NCCNC1(c1c[nH]c2ccccc12)C(F)(F)F (stereo not drawn),·,·,-4%,2.8%,·
O=C(Nc1ncccc1O)c1cccc(S(=O)(=O)N2CCc3ccccc32)c1,i,i,3%,0.7%,7.9e-09
O=C1CC[C@H](NC(=O)c2ccccc2)C(=O)N1,i,i,-6%[11.4 µM],3.4%[11.5 µM],5.7e-09
OCCN[C@@H]1c2cc(Cl)ccc2-c2c(Cl)cc(Cl)cc21,i,i,9%[11.4 µM],1.8%[11.5 µM],8.2e-09
O=c1c(CCc2ccccc2)nc2cnc(N3CCOCC3)nc2n1Cc1ccc(F)cc1,i,i,?,7.2%,1.1e-09
O=C(C1CC1)N1CCN=C1SCc1ccccc1Cl,·,·,9%,-2.3%,·
COc1cc(C(=O)O[C@@H]2CC(C)=CC[C@@]3(C)CC[C@](O)(C(C)C)[C@H]23)ccc1O,i,i,9%,·,1e-09
CC(=O)C1=C(Nc2ccc(C)cc2)CC(C)(O)C(C(C)=O)C1c1ccco1 (stereo not drawn),i,i,14%,-0.5%,7.1e-09
O=C(Nc1ccc2c(c1)OCO2)N1CCN(C/C=C/c2ccccc2)CC1,i,i,?,5.9%,3.1e-08
O=C(CSc1nc2ccccc2nc1SCC(=O)N1CCOCC1)N1CCOCC1,·,·,11%,-0.1%,·
Clc1ccc(OCc2nn3c(C4CCCCC4)nnc3s2)cc1,i,i,·,1.3%,2.6e-08

# Part of the list above, set out differently:
compound: O=C(Nc1ccc2c(c1)OCO2)N1CCN(C/C=C/c2ccccc2)CC1
  A488 autofl: i	Resorufin fluor: i	TSHR agonist: ?	AID923: 5.9%	A647 autofl: 3.1e-08
compound: O=C(CSc1nc2ccccc2nc1SCC(=O)N1CCOCC1)N1CCOCC1
  A488 autofl: ·	Resorufin fluor: ·	TSHR agonist: 11%	AID923: -0.1%	A647 autofl: ·

# (cont.)
canonical_smiles,A488 autofl,Resorufin fluor,TSHR agonist,AID923,A647 autofl
COc1ccc(S(=O)(=O)N(CCc2ccccc2)CC(=O)NCCCO)cc1,i,i,-4%,0.5%,4.2e-08
O=c1ccc2cc3c([nH]c4ccc(Br)cc43)oc-2c1O,i,i,-6%,0.5%,4.9e-09
O=C(CSc1nccc(=O)[nH]1)Nc1ccc(Br)c(Cl)c1,i,i,28%,-1.7%,2.8e-08
CCCC(=O)Nc1nnc(Sc2ccc(N(C)C)cc2)s1,i,i,3%,0.0%,1e-09
Cc1ccc(S(=O)(=O)N2CCC(C(=O)N3CCC[C@H]3C(=O)NCc3ccco3)CC2)cc1,i,i,8%,0.4%,3.5e-08
O=C(Nc1ccc(S(=O)(=O)NCCc2ccccc2)cc1)c1ccc(Br)o1,i,i,-6%,0.1%,1.5e-08
CCn1nnc(NC(=O)c2c(OC)cccc2OC)n1,i,i,-2%,1.7%,1e-09

# Single values from the entries so far.
# In TSHR agonist, O=c1ccc2cc3c([nH]c4ccc(Br)cc43)oc-2c1O is listed with -6%
# In TSHR agonist, O=C(Nc1ccc(S(=O)(=O)NCCc2ccccc2)cc1)c1ccc(Br)o1 is listed with -6%
# In TSHR agonist, CCCC(=O)Nc1nnc(Sc2ccc(N(C)C)cc2)s1 is listed with 3%
# In AID923, CCn1nnc(NC(=O)c2c(OC)cccc2OC)n1 is listed with 1.7%
# In A647 autofl, Cc1ccc(S(=O)(=O)N2CCC(C(=O)N3CCC[C@H]3C(=O)NCc3ccco3)CC2)cc1 is listed with 3.5e-08

# The list is partial (hit frequency here may not be typical).
